# 2A firefly = lowers the firefly signal of an FMDV 2A StopGo reporter. HEK cells with a luciferase reporter of 2A StopGo recoding. Potency, µM (titrated, usually from 57.5 µM), for inactives: at the highest dose signal change, negative = less light. 120,000 compounds, 0.23% hits. AID 1745856; active = well fitted falling curve with a large enough effect; inconclusive = small, poorly fitted or top-dose-only effect; inactive = no such curve, though single readings can be large or run the other way; note: nearly all actives have a fitted effect of over 60% in size; overnight with compound
# 2A Renilla = lowers the Renilla signal of an FMDV 2A StopGo reporter | HEK cells with a luciferase reporter of 2A StopGo recoding | 120,000 compounds, 0.32% hits | AID 1745857 | Potency, µM (doses to about 57.5 µM), inactives show at the highest dose signal change, negative = less light; active means well fitted falling curve with a large enough effect; inconclusive means small, poorly fitted or top-dose-only effect; inactive means no such curve, though single readings can be large or run the other way; note: nearly all actives have a fitted effect of over 55% in size; overnight with compound
# Numbers without * were called inactive; u = inconclusive; [ ] = dose if it differs, or a comment. % is set by controls: 0 for no effect and ±100 for the full control effect; potency is the fitted concentration of half-maximal effect.
# Every second line gives: 2A firefly | 2A Renilla
> Cc1cc(C)cc(C(=O)OCCCN(C)C2CN(Cc3cn(Cc4ccccc4Cl)nn3)S(=O)(=O)C2)c1 (stereo not given)
  -10% | -10%
> COc1cc(C(=O)Nc2cc(Cl)ccc2OCC2CCCO2)cc(OC)c1OC (stereo not given)
  -7% | -7%
> Cc1cc(O)c(C(=O)c2cnc3c(c2)COc2ccccc2-3)cc1Cl
  11% | 42%[activator]
> CC(C(=O)N(C)CC(=O)Nc1ccccc1C(F)(F)F)N1CCN(Cc2ccccc2)CC1 (stereo not given)
  0% | -5%
> CCCC1CCC(c2ccc(-c3ccc(CC)cn3)cc2)CC1C (stereo not given)
  2% | -17%[1.06 µM]
> O=c1[nH]c(CSc2nnc(-c3cccs3)n2C2CC2)nc2ccc(Cl)cc12
  12% | -21%
> COc1ccccc1CNC(=O)c1ccc(CSc2nc3ccncc3n2Cc2ccccc2C)cc1
  -3% | -12%
> CCOCCc1nnc(NC(=O)C(=O)c2cc(C)n(-c3cccc(Cl)c3)c2C)s1
  -3% | -6%
> CC(=O)N1CCN(c2nc(-c3ccccc3)nc3ccccc23)CC1
  19% | 11%
> COc1ccc(-c2cc(C(=O)Nc3c(C)nn(Cc4ccccc4C)c3C)no2)cc1OC
  u | u

# Ordered by count of non-hydrogen atoms (rising): 4 of the compounds above
# Every second line gives: 2A firefly | 2A Renilla
> CCCC1CCC(c2ccc(-c3ccc(CC)cn3)cc2)CC1C (stereo not given)
  2% | -17%[1.06 µM]
> CC(=O)N1CCN(c2nc(-c3ccccc3)nc3ccccc23)CC1
  19% | 11%
> CCOCCc1nnc(NC(=O)C(=O)c2cc(C)n(-c3cccc(Cl)c3)c2C)s1
  -3% | -6%
> Cc1cc(C)cc(C(=O)OCCCN(C)C2CN(Cc3cn(Cc4ccccc4Cl)nn3)S(=O)(=O)C2)c1 (stereo not given)
  -10% | -10%

# Following part
# Every second line gives: 2A firefly | 2A Renilla
> CCOC(=O)C1CCN(C(=O)c2ccc3c(c2)sc2nc(-c4ccccc4)cn23)CC1
  37%[activator] | -4%
> O=C(Nc1ccc2oc(-c3cccc(Cl)c3)nc2c1)c1ccc(F)cc1
  1% | -3%
> COc1cc(OC)c(NC(=O)c2cn(C3CCCC3)c(=O)c3c2c2ccccc2n3C)cc1Cl
  6% | -7%
> COc1ccc(-c2nc(NC(C)c3ccccc3)c3ccccc3n2)cc1 (stereo not given)
  0% | 17%
> CCCN(CCC)S(=O)(=O)c1c(C(=O)OCC)c(C)n(C)c1C
  8% | 33%[activator]
> Cc1ccc(Nc2ccc3ccccc3c2)cc1
  300%[activator] | 18%
> CCCSc1nnc2c(n1)OC(c1ccc(OCC(=O)O)cc1)Nc1ccccc1-2 (stereo not given)
  150%[activator] | -7%
> COc1ccc(C)cc1NS(=O)(=O)c1ccc(-c2cnc(C)o2)cc1
  u | 83%[activator]
> CCc1ccc(OCC(=O)N2CCN(CCc3ccccn3)CC2)cc1
  -6% | -10%
> Cn1c(Cl)nc2c1c(=O)n(Cc1ccccc1Cl)c(=O)n2C
  0% | -14%
> Nc1cc(=O)[nH]n1C1CCCCCC1
  11% | 50%[activator]
> N#Cc1c(SCC(N)=O)nc2c(c1-c1cccs1)CCCC2
  -19% | -17%
> Cc1cc(-n2c(SCC(=O)NCC3CCCO3)nc3ccsc3c2=O)ccc1F (stereo not given)
  -1% | -5%
> CCN(Cc1ccncc1)C(=O)C(C)C
  7% | -2%
> NC(=O)CSc1ncc2c(n1)-c1ccccc1N(Cc1ccccc1)S2(=O)=O
  -13% | -9%
> CCC(C)NC(=O)c1cc2cc(S(=O)(=O)N3CCCCC3)ccc2n1C (stereo not given)
  -16% | -18%
> N#CC1=C(SCC(=O)Nc2ccccc2C(F)(F)F)NC(=O)CC1c1ccc(F)cc1 (stereo not given)
  0% | 9%
> COc1ccc(OC)c(N2CC(O)=C(c3nc4ccccc4n3C)C2=N)c1
  -17% | -9%
> CC(C)N(C)C(=O)c1ccc(Cl)c(NC(=O)C2(C)CC2(Cl)Cl)c1 (stereo not given)
  -4% | 16%
> CS(=O)(=O)N(CC(=O)Nc1cc(Cl)cc(Cl)c1)Cc1ccccc1
  6% | 0%
> CC(C)CNc1cccc2c1S(=O)(=O)N(Cc1cn(Cc3ccc(C(F)(F)F)cc3)nn1)Cc1ccccc1O2
  -8% | 28%
> O=C(Nc1c(F)c(F)c(F)c(F)c1F)c1ccc(-c2ccccc2)cc1
  63%[activator] | 0%
> CCC/C(=N\NC(=O)C(C)C)c1ccccc1
  71%[activator] | 34%[activator]
> O=C(NCCS(=O)(=O)N1CCN(c2cccc(Cl)c2)CC1)c1cccc(C(F)(F)F)c1
  6% | -3%
> COc1ccccc1N1CCN(C(=O)c2cn(CC(C)C)c(=O)c3c2c2ccccc2n3C)CC1
  10% | 79%[activator]
> CC(C)c1ccc(NC(=O)CSc2ncnc3c2sc2ccccc23)cc1
  -5% | -4%
> Cc1cc(C)c(NC(=O)CCn2c(=O)c3cccn3c3cccnc32)c(C)c1
  -17% | -1%
> CCCn1c(SCc2ccccc2Cl)nc2c1c(=O)[nH]c(=O)n2C
  20% | 14%
> Cc1ccc(C(=O)C2CC2)cc1
  -1% | 1%
> COc1ccccc1CNC(=O)CCCCn1c(=O)c2ccccc2n(Cc2ccccc2F)c1=O
  -12% | -10%
> CCN1C(=O)c2ccccc2S(=O)c2ccc(C(=O)NCc3ccc(OC)cc3)cc21 (stereo not given)
  2% | 15%
> COc1cccc(/C=C/C(=O)c2ccc(C)cc2C)c1OC
  2% | u
> COc1cc(-c2nc(C(N)=O)c3c(n2)n(-c2cccc(C)c2)c(=O)n3C)cc(OC)c1OC
  1% | -3%
> CCOC(=O)c1c(-c2ccc(Br)cc2)csc1NC(=O)c1ccc(F)cc1
  -15% | -13%
> Cc1cc2oc(=O)cc(CN3CCN(CCO)CC3)c2cc1C
  -3% | -6%
> CCc1cc(=O)oc2cc(OCC(=O)O)c(Cl)cc12
  6% | 2%
> COC(=O)c1ccc(COc2ccccc2/C=N/O)cc1
  88%[activator] | -14%
> CC(C)NC(=S)NNC(=O)C1(c2ccccc2)CCC1
  13% | -6%[1.06 µM]
> Cc1nn(-c2ncnc3nc[nH]c23)c2c1C(c1ccc(F)cc1Cl)CC(=O)N2 (stereo not given)
  -2% | -8%
> CCn1cc(Br)c(C(=O)Nc2cc(C(F)(F)F)ccc2Cl)n1
  17% | -12%
> COc1ccc(Nc2nc(-c3ccc(C)cc3)nc3ccccc23)c(OC)c1
  -31% | u
> Cc1cccc(Cn2c(CNS(=O)(=O)c3ccc4c(c3)CCCC4)nc3cccnc32)c1
  -21% | 45%[activator]
> Cc1ccc(S(=O)(=O)NCCNc2ccc([N+](=O)[O-])c3cccnc23)cc1
  -18% | 33%[activator]
> Cc1oc(-c2nc(C#N)c(NCCN(C)C)o2)cc1S(=O)(=O)N(C)c1ccccc1
  -7% | 0%
> COc1ccc(N2CCN(C(=O)c3cc4ccc5cccnc5c4[nH]3)CC2)cc1
  -3% | 10%
> Cc1ccc(NC(=O)c2ncoc2-c2cccc(Cl)c2)c(C)c1
  -12% | -16%
> COc1ccccc1CNC(=O)c1ccc(CS(=O)(=O)c2c(Cl)cccc2Cl)o1
  -12% | 0%
> CCN(CC)CCNC(=O)C1CCN(S(=O)(=O)c2c(C)noc2/C=C/c2ccccc2F)CC1
  -17% | 9%
> CCOc1ccccc1NC(=O)c1cc2c(Cl)nc3ccccc3c2s1
  -25% | -15%
> CCC(=O)N1c2ccccc2CC1C(=O)NCCN1CCN(c2cc(Cl)ccc2C)CC1 (stereo not given)
  -14% | -18%

# Next part.
# Every second line gives: 2A firefly | 2A Renilla
> CCCCCCCCCCS(=O)CCO (stereo not given)
  25% | -23%
> Cc1csc(NC(=O)C2CC(=O)N(Cc3ccco3)C2)n1 (stereo not given)
  39%[activator] | -10%
> O=C(Nc1ccc(Br)cc1F)c1ncoc1-c1ccco1
  43%[activator] | 42%[activator]
> CCC(C)Oc1cccc(C(=O)Nc2cccc3ccc(C)nc23)c1 (stereo not given)
  -3% | 0%
> O=S(=O)(Nc1ccc2cn[nH]c2c1)c1cc(C(F)(F)F)ccc1Cl
  67%[activator] | 285%[activator]
> Cc1noc(C)c1S(=O)(=O)Nc1ccccc1SCc1cc(=O)n2ccccc2n1
  168%[activator] | 4%
> O=C(Nc1ccccc1F)c1nc2ccccc2nc1N1CCCC1
  5% | 0%
> Cc1cccc(NC(=O)CSc2nc(=O)n(Cc3ccccn3)c3c2CCC3)c1C
  -11% | 195%[activator]
> CCNc1c(NC(=O)Nc2cc(Cl)ccc2C)c(=O)oc2ccccc12
  11% | 11%
> Cc1ccc(Cl)cc1Nc1cc(Cl)c2nonc2c1[N+](=O)[O-]
  u | u
> CCOC(=O)N1CCc2c(sc3c2C(=O)NC(c2cc(OC)c(OC)c(OC)c2)N3)C1 (stereo not given)
  51%[activator] | 23%
> Cc1ccc(C)c(NS(=O)(=O)c2ccc3c(c2)n(C)c(=O)n3C)c1
  -7% | 198%[activator]
> O=C(CCCn1c(=O)c2cccn2c2cccnc21)Nc1ccccc1C(F)(F)F
  -8% | -9%
> COc1ccc(C(=O)N2CCC(C(=O)Nc3ccccc3Cl)CC2)cc1
  -12% | -10%
> CC(NC(=O)CC1C=CCC1)c1ccc2c(c1)CCCC2 (stereo not given)
  3% | -7%
> COc1ccc(-c2nc3ccccc3o2)cc1NC(=O)c1cc([N+](=O)[O-])ccc1N1CCOCC1
  60%[activator] | -4%
> COc1ccc(-n2c(=O)c3ccc(C(=O)NCc4ccc(C)cc4)cc3n(Cc3ccc(F)cc3Cl)c2=O)cc1
  -5% | -6%
> CCOC(=O)c1cccc(NC(=O)c2cnc(N3CCCCC3)c3ccccc23)c1
  -16% | u
> CSc1ccccc1NC(=O)c1cccc(F)c1
  47%[activator] | 8%
> Cc1ccc(CN(C)Cc2ccco2)cc1
  -5% | 7%
> Cc1ccc(S(=O)(=O)Nc2cc(Cl)c3oc4c(c3c2)CCCC4)cc1
  9% | 107%[activator]
> Cn1cnc2c1c(=O)n(CCCn1nnc(-c3ccc(F)cc3)n1)c(=O)n2C
  7% | 0%
> O=C(Cn1nc(-c2ccccc2)ccc1=O)NCc1ccc(F)cc1Cl
  14% | -9%
> COCCNC(=O)CSc1nc(-c2ccc(C)cc2)nc2c1c(=O)n(C)c(=O)n2C
  -16% | -11%
> CCOC(=O)c1cc(S(=O)(=O)N(C)CC(=O)Nc2cccc(Cl)c2C)cn1C
  -16% | -6%
> O=C(NCc1ccccc1)c1cccc(Nc2nc3ccccc3n3nnnc23)c1
  3% | -17%
> CCc1ccc(NC(=O)C(CC)n2c(=O)c(-c3ccccc3NC(C)=O)nc3ccccc32)cc1 (stereo not given)
  -12% | -7%
> COc1cccc(C(=O)/C(C#N)=C\c2ccccc2OC(F)F)c1
  19% | 1%
> Cc1nn(Cc2ccc(Cl)cc2Cl)c(C)c1NS(=O)(=O)c1c(C)nn(C(F)F)c1C
  -15% | 10%
> Cc1ccc(OCc2nnc3sc(-c4cccc(N(C)C)c4)nn23)cc1
  11% | -6%
> Cc1ccc(N2C(=O)CCC2(C#N)c2ccccc2)cc1 (stereo not given)
  -10% | -5%
> CCOc1ccc(-n2c(=O)c3c4c(sc3n(CC(=O)NCCCOC)c2=O)CCCCC4)cc1
  -1% | -2%
> COc1cc(/C=C(/C#N)C(=O)C(C)(C)C)cc(Cl)c1OC
  20% | 3%
> Cc1cc(C)n2nc(CNS(=O)(=O)c3ccc(C)c(C)c3)nc2n1
  -15% | -11%
> N#CC(C(=O)NCc1ccccc1)C(=O)c1cccc(C(F)(F)F)c1 (stereo not given)
  -20% | 7%
> COC(=O)c1cc2sc(C)cc2n1CC(=O)Nc1cccc(SC)c1
  -18% | -12%
> CC(C)c1ccc(NC(=O)COc2ncnc3ccccc23)cc1
  23% | 4%
> COc1ccc(OC)c(C2CCCN2CC(=O)N(C)c2ccccc2)c1 (stereo not given)
  -6% | -9%
> O=C1OC(CN2CCOCC2)CN1/N=C/c1ccc([N+](=O)[O-])o1 (stereo not given)
  -6% | 11%
> COC(=O)c1sc(=S)n(-c2cc(C)ccc2C)c1N
  10% | 15%

# Looked up above.
# 2A firefly with N#CC(C(=O)NCc1ccccc1)C(=O)c1cccc(C(F)(F)F)c1 (stereo not given) stands at -20%
# 2A Renilla with CCOc1ccc(-n2c(=O)c3c4c(sc3n(CC(=O)NCCCOC)c2=O)CCCCC4)cc1 stands at -2%

# (next part)
# Every second line gives: 2A firefly | 2A Renilla
> COc1cccc2cc(-c3cc(=O)oc4cc(O)ccc34)c(=O)oc12
  15% | 4%
> O=C(CSc1nc2ccccc2n1Cc1ccc(F)c(Cl)c1)N1CCN(c2ccc(F)cc2)CC1
  -8% | -7%
> Cc1ccccc1NC(=O)CC1NCCNC1=O (stereo not given)
  2% | 3%
> COc1cc(CCNC(=O)Cn2c(=O)c(=O)n(C)c3ccccc32)cc(OC)c1OC
  7% | 5%
> Cc1ccc(C)c(OCCn2c(-c3ccc(Cl)cc3)nc3ccccc3c2=O)c1C
  -11% | -3%
> COc1ccc(NC(=O)CSc2nc3ccccc3o2)cc1
  192%[activator] | 7%
> CCOc1ccc(NC(=O)c2sc3ccccc3c2Cl)cc1
  82%[activator] | -1%
> N#Cc1ccccc1N=Cc1ccc2ccccc2c1
  93%[activator] | -1%
> Cc1ccc(N2C(=O)CS(=O)(=O)C23C(=O)N(Cc2cccc(F)c2)c2ccccc23)cc1Cl (stereo not given)
  -11% | 4%
> CCC1(C)Cc2nc3sc4c(=O)n(CC(=O)NCc5ccco5)cnc4c3cc2CO1 (stereo not given)
  0% | 29%
> CC1CCN(C(=O)c2ccc(NC(=O)c3nsc4ccccc34)cc2)CC1
  0% | -11%
> Cc1cc(SCC(=O)NC(N)=O)nc2c(C)cccc12
  10% | 3%

# Screens: PubChem BioAssay, National Center for Advancing Translational Sciences (NCATS)
